Bioassay records as filed in PubChem BioAssay.
KCNQ2 enhance: potentiators of rat KCNQ2 potassium channel; Potassium voltage-gated channel subfamily KQT member 2 (Rattus norvegicus), O88943; CHO-K1 KCNQ2, FluxOR thallium flux fluorescence; hits give high values; B-score at 10 µM; actives 0.54% (n = 310,000); AID 2239, 2010;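 active means fluorescence ratio B-score at least 3 SD of library B-scores, with initial fluorescence B-score within 3 SD, cut at about 5.3 in these data; same plate scores as AID 2156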;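 further: B-score of peak minus minimum over baseline fluorescence ratio after K+ and Tl+ stimulus; positive B-score means potentiation of KCNQ2 with more thallium influx and brighter signal; only the inactives scoring about 0 or higher are listed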
Target sequence (O88943 whole entry, looked up): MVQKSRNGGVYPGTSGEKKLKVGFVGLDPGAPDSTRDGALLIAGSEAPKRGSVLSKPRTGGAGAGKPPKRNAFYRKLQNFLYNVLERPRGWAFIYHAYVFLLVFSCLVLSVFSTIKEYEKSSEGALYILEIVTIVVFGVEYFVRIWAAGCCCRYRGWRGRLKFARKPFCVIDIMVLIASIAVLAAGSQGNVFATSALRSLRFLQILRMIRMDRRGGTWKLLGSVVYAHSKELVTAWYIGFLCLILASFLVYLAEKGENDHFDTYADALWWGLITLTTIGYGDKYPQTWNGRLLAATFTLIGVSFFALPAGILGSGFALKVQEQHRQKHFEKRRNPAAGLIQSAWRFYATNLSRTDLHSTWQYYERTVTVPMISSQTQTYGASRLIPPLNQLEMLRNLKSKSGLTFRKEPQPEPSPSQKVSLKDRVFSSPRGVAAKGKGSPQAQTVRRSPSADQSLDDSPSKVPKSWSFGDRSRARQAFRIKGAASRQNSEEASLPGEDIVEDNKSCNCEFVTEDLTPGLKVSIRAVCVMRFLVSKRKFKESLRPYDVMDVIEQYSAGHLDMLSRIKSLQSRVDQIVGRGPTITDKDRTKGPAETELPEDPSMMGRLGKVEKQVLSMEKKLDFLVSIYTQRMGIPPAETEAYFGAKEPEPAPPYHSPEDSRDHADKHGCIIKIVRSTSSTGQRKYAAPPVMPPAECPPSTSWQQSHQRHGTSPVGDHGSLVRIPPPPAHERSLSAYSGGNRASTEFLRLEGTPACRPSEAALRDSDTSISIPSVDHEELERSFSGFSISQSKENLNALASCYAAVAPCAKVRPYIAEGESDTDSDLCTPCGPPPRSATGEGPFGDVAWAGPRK
KCNQ2 enhance baseline: also measured in KCNQ2 enhance; calls as there; B-score; compound at 10 µM; measured here: initial fluorescence intensity artifact check;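 brightness before thallium and not channel activity; 0 = typical well and far values either way flag optical interference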
* hit, by the source's call.

Results follow in this order: KCNQ2 enhance | KCNQ2 enhance baseline
Cc1nnc(SCC(=O)c2ccc(Cl)cc2)s1
  0.86 | 0.12
Cn1ccs/c1=N\C(=O)Nc1cccc(Cl)c1
  0.03 | -1.2
Oc1cccnc1Sc1cccc(C(F)(F)F)c1
  0.14 | -0.75
Oc1ccc(/C=N/Nc2cccc(Cl)n2)c(O)c1
  1.7 | -1
C=CCNC(=S)NNC(=O)c1csc(C)c1CC
  0.06 | -0.31
COn1c(SCc2cccc(Cl)c2)nc2ccccc2c1=O
  0.22 | 0.04
CCCCC(=O)Nc1nn(CC)c2nc3c(C)cccc3cc12
  1.9 | -1.5
COc1ccc(-c2cc3c(=O)n(CC(=O)Nc4cccc(Cl)c4)ncn3n2)cc1
  0.86 | 2.1
CC(C)NC(=O)C1CCCN(c2nnc(-n3cccc3)s2)C1 (centres undefined)
  0.57 | 0.48
O=C(NCCS(=O)(=O)NCc1cccnc1)c1ccccc1
  0.48 | 1.2
Cc1ccccc1-c1cc2nc(C)c(Cl)c(=O)n2[nH]1
  3.8 | -0.14
N#CCc1c(C#N)c(N)nc(Nc2ccccc2)c1C#N
  1.5 | 0.43
O=C(Oc1ccc2ccc(OC(=O)N3CCOCC3)cc2c1)N1CCOCC1
  0.76 | 0.7
COc1ccc(CNC(=O)C/C(C)=N/NC(=O)COc2ccc(C)cc2Br)cc1
  1.3 | -0.27
COCCNC(=O)c1nc2ccccc2s1
  1.6 | -0.15
CCOC(=O)C1(O)CC(C)=NN1C(=O)c1cccc(Cl)c1 (centres undefined)
  0.83 | -0.32
CC1CCN(C(=O)CCNS(=O)(=O)c2ccc3c(c2)c(=O)n(C)c(=O)n3C)CC1
  0.15 | -1.4
Cn1ccnc1SCC(=O)Nc1cc(C(F)(F)F)ccc1N1CCOCC1
  0.15 | 0.03
CCCS(=O)(=O)N1CCC(Cc2ccc(OC)cc2)(C(=O)OCC)CC1
  0.02 | 0.2
CCN(Cc1cc2ccccc2[nH]c1=O)S(=O)(=O)c1ccc(OC)cc1
  0.8 | -2
Cc1ccc(OCCn2c(C)c(/C=N/n3cnnc3)c3ccccc32)cc1
  0.2 | 1.6
CN1C(=O)N(C)C2CC1N(C)C(=O)N2C
  1.3 | 1.1
O=c1nc(/C=C/c2cccn2-c2ccc([N+](=O)[O-])cc2)cc(C(F)(F)F)[nH]1
  0.95 | 0.01
C=CCN1C(=O)C2(OCCCO2)c2cccc(Cl)c21
  0.67 | -0.01
CCC(=O)N1CCN(c2nc(CC)nc3sc4c(c23)CCCC4)CC1
  0.82 | 2.5
CCNC(=O)N1CCC(n2nccc2NC(=O)CCOc2ccccc2)CC1
  1.7 | -1.2
COC(=O)/C(=C\c1ccc(O)cc1)c1nc2ccccc2[nH]1
  1.2 | 0.54
COc1ccc(S(=O)(=O)N2CC(C(=O)O)Oc3ccc(Cl)cc32)cc1 (centres undefined)
  1.5 | -0.61
Cc1ccc(C(=O)Nc2cccc(C(O)c3ccccc3)c2)cc1 (centres undefined)
  4.8 | 0.09
COc1ccccc1CC(=O)NNS(=O)(=O)c1ccc([N+](=O)[O-])cc1
  1 | -0.16
CC(Nc1nc(-c2ccc(F)cc2)cs1)c1nc2cc(Cl)c(N3CCCCC3)cc2n1CCOCCO (centres undefined)
  0.13 | 2.3
CCC(C)c1ccc(O)c(N)c1 (centres undefined)
  0.99 | 0.01
CC(Oc1ccc(F)cc1)C(O)CCN(C)C (centres undefined)
  2 | 0.4
O=C(NC(=S)Nc1cccnc1)c1ccccc1
  0.03 | 1.8
Cc1noc(C)c1C(=O)Nc1nc2ccc(S(C)(=O)=O)cc2s1
  1.1 | -0.02
Cc1cc([N+](=O)[O-])nn1CC(=O)N(C)Cc1ccccc1
  0.86 | -0.14
C/C(=C\C(=O)N1CCc2ccccc21)C(=O)O
  0.01 | 0.13
CCn1cc(C(=O)O)c(=O)c2cc(F)c(N3CCN(C(=S)NC(=O)c4ccccc4C)CC3)cc21
  0.44 | 1.4
CNC(=S)Nc1cccc(C(=O)OC)c1
  1.7 | -1.1
O=S(=O)(c1ccc(Br)s1)N1CCN(c2ncccn2)CC1
  2 | 1.1
COc1ccc(CNC(=O)CCn2cccc2)cc1
  0.02 | -0.02
Cc1cc(/C=C2/SC(=O)N(CC(=O)N3CCCC3)C2=O)c(C)n1C
  0.24 | 1
C/C(=N/NS(=O)(=O)c1ccccc1)c1ccc(NC(=O)C(F)(F)F)cc1
  0.83 | 0.79
COC(=O)CCC(=O)Nc1nc(-c2ccccc2)cs1
  1.3 | -0.56
NC(=O)CN1CCOCCOCCN(CC(N)=O)CCOCC1
  0.72 | -0.47
Cc1ccc(CNC(=O)CN(C(=O)C2(C)CC(=O)N=C3C=CC=CN32)c2cccc(C)c2C)cc1 (centres undefined)
  0.68 | 2.4
CC(C)CN(CC(C)C)c1nc(N)c(C#N)c(CC#N)c1C#N
  1.1 | 0.35
Nc1ccc(C(=O)Nc2ccccc2C(=O)O)cc1
  0.33 | 0.19
COc1cc(CN2CCN(c3ccccc3F)CC2)cc(OC)c1O
  1.4 | -1
CC(C)(C)c1ccc(-c2noc(-c3ccc4c(c3)CCO4)n2)cc1
  0.83 | 1.4

Carrying on.
Results follow in this order: KCNQ2 enhance | KCNQ2 enhance baseline
COc1ccc(-n2c3c(cc(C(=O)NNc4ccccc4C)c2=O)C(=O)CC(C)(C)C3)cc1
  1.3 | -1.9
C=CCn1c(N)cc(=O)nc1SCC(=O)Nc1ccc(C(=O)OC)cc1
  0.41 | -1.9
CCC(C)n1c(SCC(=O)/C(C#N)=C(\C)N)nc2ccccc2c1=O (centres undefined)
  2.1 | 0.31
CCOc1ccc(CCNC(=O)C(CC)n2nc(C)n3c(cc4sccc43)c2=O)cc1OCC (centres undefined)
  0.98 | -1.2
O=C(NNC(=O)c1cccc(Br)c1)C(=O)N1CCCCC1
  0.57 | -0.21
CN(C)/N=C/c1cn(-c2ccccc2)nc1-c1cccnc1
  0.67 | 0.95
S=c1[nH]nc(-c2ccc(Br)cc2)n1Cc1ccccc1
  0.08 | -1.5
CCSc1nc2c(c(=O)[nH]1)C(C(C)C)C(C#N)=C(N)O2 (centres undefined)
  0.11 | 0.31
Cc1csc(NC(=O)c2cc3c(s2)CCCC3)n1
  7.3* | 1*
CC(NC(=O)C1CCN(C(=O)[C@@H]2Cc3ccccc3CN2C(=O)OC(C)(C)C)CC1)c1ccccc1 (some centres undefined)
  1.1 | -0.11
COc1ccc(/C=N/N(CCC(=O)NC(C)(C)C)C2=NS(=O)(=O)c3ccccc32)cc1
  0.38 | -0.7
COc1ccc(-c2ccc(SCC(=O)c3cccs3)nn2)cc1
  0.27 | 0.06
O=C(COc1coc(CN2CCc3ccccc32)cc1=O)N1CCCCC1
  0.42 | 1.5
CCNc1ccc(C(=O)O)cc1N
  0.05 | 4.1
CCOC(=O)N1CCC(N2C(=O)c3ccccc3C2Nc2ccc(S(=O)(=O)N3CCOCC3)cc2)CC1 (centres undefined)
  1.5 | -0.91
O=C(CCc1n[nH]c(=O)[nH]c1=O)N/N=C/c1ccc(Br)o1
  2.1 | -0.5
CCC(C)C(NC(=O)c1ccc(Cl)cc1Cl)C(=O)O (centres undefined)
  2.7 | 0.08
O=C(CN1CCN(CC(=O)Nc2ccccc2F)CC1)Nc1ccc2c(c1)OCCO2
  0.87 | 0.18
O=C(CSc1nc2ccc(Cl)cc2[nH]1)NCCc1ccccc1
  0.6 | 6.7
CCOc1ccc(CCNC(=O)c2cc([N+](=O)[O-])ccc2N2CCOCC2)cc1OCC
  0.89 | 1.5

Of the compounds above, these have a tert-butyl group.
Results follow in this order: KCNQ2 enhance | KCNQ2 enhance baseline
CC(C)(C)c1ccc(-c2noc(-c3ccc4c(c3)CCO4)n2)cc1
  0.83 | 1.4
CC(NC(=O)C1CCN(C(=O)[C@@H]2Cc3ccccc3CN2C(=O)OC(C)(C)C)CC1)c1ccccc1 (some centres undefined)
  1.1 | -0.11
COc1ccc(/C=N/N(CCC(=O)NC(C)(C)C)C2=NS(=O)(=O)c3ccccc32)cc1
  0.38 | -0.7

The listing continues.
Results follow in this order: KCNQ2 enhance | KCNQ2 enhance baseline
COc1cc(-c2cc(-c3ccc(O)cc3)nc(N)c2C#N)ccc1O
  2.4 | -1.1
c1ccc2c(Nc3nncs3)c3ccccc3nc2c1
  1.6 | -0.63
Nc1c(C(=O)c2ccco2)oc2ccccc12
  0.22 | -1.1
O=S(=O)(Nc1ncccn1)c1ccccc1
  0.04 | 0.86
Cc1nc(SCC(=O)Nc2ccccc2Cl)oc1C
  1.5 | 0.63
Cc1cc(S(=O)(=O)NCC(c2ccc(F)cc2)N2CCN(C)CC2)ccc1F (centres undefined)
  1 | 0.06
CC(C)c1nc(=S)n(-c2ccccc2)[nH]1
  2.5 | -2.1
O=C(NCC(c1ccco1)N1CCOCC1)c1ccc(C(F)(F)F)cc1 (centres undefined)
  0.66 | 0.98
Cc1nc([N+](=O)[O-])cn1CC(=O)Nc1ccc(Cl)cc1
  0.68 | 0.46
Cc1cccc(Nc2nnc(SCC(=O)NC(=O)Nc3ccc4c(c3)OCCO4)s2)c1
  0.78 | -0.7
Cc1cccc(C)c1NC(=O)NC1CCc2ccccc21 (centres undefined)
  0.59 | 0.6
O=C(NCc1ccc(-c2nc3ccccc3s2)cc1)c1cc2ccccc2o1
  0.35 | -0.7
COc1ccc(CNc2nc3ccccc3n2CCN2CCCCC2)c(OC)c1
  1.2 | -3.7
O=Cc1cnc2ccccc2c1-c1ccccc1
  2.1 | 1.1
COc1ccc(S(=O)(=O)N2CCN(c3ccc(F)cc3)CC2)cc1C(=O)N1CCCC1
  0.64 | -0.25
COc1ccc(-n2nnnc2SCC(=O)NCc2cccs2)cc1
  1.6 | 0.8
COc1ccccc1NS(=O)(=O)c1cccc(C(=O)N2CC(C)OC(C)C2)c1 (centres undefined)
  2 | 0.18
O=C(Nc1ccc2c(c1)oc1ccccc12)C1CC1
  0.17 | -0.88
CCCc1nc(SCC(=O)N2CCCC2)c2ccccc2n1
  0.09 | -1.4
CCCc1cc(C(=O)NC2CCCN(Cc3ccccc3F)C2)no1 (centres undefined)
  0.16 | 0.57
Cc1ccc(-n2nc(C)c3c(C)c(CCC(=O)O)c(C)nc32)cc1
  0.05 | 1.1
CN(c1ccccc1C(N)=O)S(=O)(=O)c1ccccc1
  1.2 | -1.4
Cc1cc(Nc2ccccc2C(=O)O)nc2nc3ccccc3c(=O)n12
  0.78 | 0.46
CCCOc1ccc(CNC(=O)Cc2cccs2)cc1
  0.85 | 1.4
O=C(O)c1cc([N+](=O)[O-])ccc1N1CCC(Cc2ccccc2)CC1
  1.4 | -1.5
CCCCc1c(C)nc2cc(-c3ccco3)[nH]n2c1=O
  1.6 | 2.5
COc1cccc(N(C(=O)Cn2nnc(-c3cccs3)n2)C(C(=O)NC2CCCCC2)c2ccncc2)c1 (centres undefined)
  0.01 | -1.6
Cn1c(SCC(=O)NC2CCCCC2)nnc1-c1ccccn1
  0.08 | -0.1
CC(=O)N(CN1C(=O)c2ccccc2C1=O)c1cccc(C)c1
  0.35 | -1
Cc1cc(NC(=O)CN2CCCCC2C)no1 (centres undefined)
  0.06 | -0.01
CCC(CC)Nc1ccc(C(CC(N)=O)NC(=O)Cc2ccc(Br)cc2)cc1[N+](=O)[O-] (centres undefined)
  0.08 | -0.71
O=C(Cn1ncn2nc(-c3ccccc3)cc2c1=O)NCc1ccccn1
  0.06 | 1.1
COc1ccccc1CCNC(=O)C(=O)NCC1OCCN1S(=O)(=O)c1cc(F)ccc1F (centres undefined)
  0.39 | -1.8
CC(=O)c1cc(C#N)c(N(C)Cc2ccccc2)nc1C
  0.24 | -0.8
N#C/C(=C\c1cn(Cc2ccccc2F)c2ccccc12)C(=O)NCc1ccco1
  0.11 | 0.6
CC[C@H]1OC(=O)[C@H](C)[C@@H](O[C@H]2C[C@@](C)(OC)[C@@H](O)[C@H](C)O2)[C@H](C)[C@@H](O[C@@H]2O[C@H](C)C[C@H](N(C)C)[C@H]2O)[C@](C)(O)C[C@@H](C)C(=O)[C@H](C)[C@@H](O)[C@]1(C)O
  1.1 | -0.04
CC(=O)c1ccc(NC(=O)N2CCN(c3cccc(Cl)c3)CC2)cc1
  2.9 | -1.1
Cn1c(=O)cc(OCCCC(=O)NCc2cccnc2)c2ccccc21
  0.48 | 2.4
CC(=O)C1=C(O)C(=O)N(Cc2ccccc2)C1c1ccccc1F (centres undefined)
  0.91 | -0.66
O=[N+]([O-])c1cc(-c2ccc(/C=N/n3cnnc3)o2)ccc1Cl
  1.6 | -0.28
CN1CCCN(C(=O)c2cc(=O)[nH]c3ccccc23)c2nc3ccccc3nc21
  2.3 | -1
O=C(NNC(=S)NC1CCCCC1)c1ccccc1Cl
  0.6 | 1.8
COc1ccc(CCN2C(=O)c3[nH]nc(-c4ccccc4O)c3C2c2ccc(C)cc2)cc1OC (centres undefined)
  0.32 | 0.2
CCc1c(C(=O)N/N=C/c2cccs2)nnn1-c1nonc1N
  0.78 | 0.16
Cn1c(=O)[nH]c(=O)c2c1nc(N1CCCC1)n2CCCSc1nc2ccccc2o1
  0.05 | -0.11
COc1ccccc1-c1c(C)nn2c(C)cc(C)nc12
  0.84 | 3.2
O=C(c1cnc2ccc(Cl)cc2c1Cl)N1CCOCC1
  0.04 | -0.89
Nc1c2c(nc3ccn(-c4ccccc4)c(=O)c13)CCCCC2
  2.8 | 0.73
COC(=O)c1cc(NC(=O)Cc2ccccc2[N+](=O)[O-])cc(C(=O)OC)c1
  2.5 | -0.04

An excerpt from above in order of number of heavy atoms, high to low.
Results follow in this order: KCNQ2 enhance | KCNQ2 enhance baseline
Cn1c(=O)[nH]c(=O)c2c1nc(N1CCCC1)n2CCCSc1nc2ccccc2o1
  0.05 | -0.11
CN1CCCN(C(=O)c2cc(=O)[nH]c3ccccc23)c2nc3ccccc3nc21
  2.3 | -1
COC(=O)c1cc(NC(=O)Cc2ccccc2[N+](=O)[O-])cc(C(=O)OC)c1
  2.5 | -0.04
Nc1c2c(nc3ccn(-c4ccccc4)c(=O)c13)CCCCC2
  2.8 | 0.73

A portion of the library. The share of hits here may be higher or lower than overall.
